High-throughput results: PubChem BioAssay, National Center for Advancing Translational Sciences (NCATS)
AmpC inh no det – AmpC beta-lactamase inhibition, detergent-free assay; P00811; AmpC nitrocefin hydrolysis, absorbance 480 nm, no detergent; potencies from a single point are estimates; Potency, µM (series often up to 28.7 µM), inactives show top-dose activity change, negative = inhibition; hit rate 1.8% among 71,000; active = falling curve, for most hits resting on a single point; inconclusive = weak or doubtful change; inactive = flat or rising curve; also: % of control where 0% means no effect; about half of the hits show no inhibition at the top dose; a quarter of the inactives give rising signals
Target sequence (P00811 whole entry, looked up): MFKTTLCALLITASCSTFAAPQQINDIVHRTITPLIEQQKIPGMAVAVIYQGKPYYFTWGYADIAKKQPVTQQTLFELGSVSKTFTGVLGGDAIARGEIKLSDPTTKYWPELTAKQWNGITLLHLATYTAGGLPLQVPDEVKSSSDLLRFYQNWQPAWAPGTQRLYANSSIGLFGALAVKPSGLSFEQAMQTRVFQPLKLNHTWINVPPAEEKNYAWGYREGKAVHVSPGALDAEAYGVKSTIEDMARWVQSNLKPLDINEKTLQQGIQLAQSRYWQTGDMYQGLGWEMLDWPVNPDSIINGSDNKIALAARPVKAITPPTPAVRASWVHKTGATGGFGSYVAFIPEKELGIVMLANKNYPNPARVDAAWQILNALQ
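AmpC in 20 mM phosphate buffer pH 7.0 was preincubated 15 min at room temperature with compounds. Nitrocefin (800 uM stock) was then added and hydrolysis followed at 480 nm every 20 s for 4 min.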
An asterisk follows results filed as active; & = joins results of further samples; [ ] = another dose, or the depositor's remark. Potency is read from the fitted curve at half-maximal effect. An excerpt, so the mix of outcomes need not match the whole.

SMILES	AmpC inh no det
O=C(CSc1nnc(-c2ccc(O)cc2)o1)N1CCOCC1	-6%
COC(=O)c1nnn(CC(=O)Nc2cccc(OC)c2)c1C(=O)OC	-6%
COc1ccccc1S(=O)(=O)Cc1ccc(C(=O)NCc2ccc3c(c2)OCO3)o1	21%
CC1CCN(CCCNC(=O)C2CCC(=O)N2C2CCCC2)CC1 (stereo unspecified)	1%
O=C(O)c1[nH]c2ccc(Cl)cc2c1CC(=O)N1CCN(C(=O)c2ccco2)CC1	2%
O=C(OCC(=O)N1CCN(C(=O)c2ccco2)CC1)c1cc(-c2ccccc2)nc2ccccc12	129%
Cc1ccnc(N2CCC(C(=O)Nc3cccc(C(F)(F)F)c3)CC2)n1	31%
c1ccc(Cc2nn3c(Cn4nnc5ccccc54)nnc3s2)cc1	-5%
Cc1cc2nc3[nH]c4c(Cl)cc(Cl)cc4c3nc2cc1C	14%[5.75 µM]
O=C(Nc1cccc(S(=O)(=O)C(F)F)c1)c1ccc(Cl)c(S(=O)(=O)N2CCOCC2)c1	-7%
CCCCN(Cc1cc2cc(OC)ccc2[nH]c1=O)C(=O)COc1ccccc1	12%
CCn1c2ccccc2c2cc(NC(=O)CSc3nnc(-c4ccccc4OC)n3N)ccc21	-9%
CCc1ccc(-c2nc(CN3CCC(C(=O)NCc4ccco4)CC3)c(C)o2)cc1	83%
O=c1cc(C(F)F)oc2c1ccc1ccccc12	4%
C(=N\c1nc2ccccc2n1CCN1CCCCC1)/c1cccs1	-12%
CCOC(=O)c1[nH]c(C)c(C(=O)N2CCc3ccccc32)c1C	27%
Cc1ccc(C)c(N2CCN(C(=O)c3cc4ccccn4n3)CC2)c1	77%
COC(=O)c1cccc(C(=O)Nc2ccc(C)cc2Br)n1	75%
NC(=O)c1csc(-c2ccc(CO)o2)n1	4%[5.75 µM]
CN(C)c1nc2ccc(OCCN3CCCCC3)cc2s1	-2%
CN1CCN(CCCNC(=O)Nc2cccc3ccccc23)CC1	-17%
CCOC(=O)c1cc(CC)sc1NC(=O)COC	10%
CCc1[nH]nc2c1C(c1cccnc1)C(C#N)=C(N)O2 (stereo unspecified)	-9%
Cc1ccc(S(=O)(=O)Cc2ccc(C(=O)N3CCN(Cc4ccccc4)CC3)o2)cc1	100%
Cc1occc1-c1nnc(SCC(=O)N2CCOCC2)n1Cc1ccco1	16%

5 structures from above, ordered by molar mass, lowest first:
SMILES	AmpC inh no det
Cc1cc2nc3[nH]c4c(Cl)cc(Cl)cc4c3nc2cc1C	14%[5.75 µM]
Cc1ccc(C)c(N2CCN(C(=O)c3cc4ccccn4n3)CC2)c1	77%
C(=N\c1nc2ccccc2n1CCN1CCCCC1)/c1cccs1	-12%
COC(=O)c1nnn(CC(=O)Nc2cccc(OC)c2)c1C(=O)OC	-6%
O=C(Nc1cccc(S(=O)(=O)C(F)F)c1)c1ccc(Cl)c(S(=O)(=O)N2CCOCC2)c1	-7%

Back to the main list with the five entries that preceded the break.
SMILES	AmpC inh no det
CN1CCN(CCCNC(=O)Nc2cccc3ccccc23)CC1	-17%
CCOC(=O)c1cc(CC)sc1NC(=O)COC	10%
CCc1[nH]nc2c1C(c1cccnc1)C(C#N)=C(N)O2 (stereo unspecified)	-9%
Cc1ccc(S(=O)(=O)Cc2ccc(C(=O)N3CCN(Cc4ccccc4)CC3)o2)cc1	100%
Cc1occc1-c1nnc(SCC(=O)N2CCOCC2)n1Cc1ccco1	16%
COc1ccccc1OCc1nc(Cc2ccc(Cl)cc2)no1	4%
CC(=O)c1c(N)n(C)c(=O)n(C)c1=O	4%
COc1ccc(NS(=O)(=O)c2cccc(C(=O)O)c2)cc1	-14%
CCOc1ccc(NC(=O)CSc2n[nH]c(=O)n2-c2ccccc2)cc1	-10%
COc1ccc(NC(C)=O)cc1NC(=O)CN1CCN(CC(=O)Nc2ccc(Cl)cc2)CC1	118%
COC(=O)c1ccc2c(c1)nc(C)n2CCO	3%
Cc1cccc(Nc2ccccc2C(=O)OCC(=O)N2CCOCC2)c1C	166%
CCOC(=O)c1sc(=NC(=O)c2ccc(OC)c(OC)c2)n(C)c1C	60%
OC1(c2cccc(C(F)(F)F)c2)CCN(c2ccc(-c3ccccc3)nn2)CC1	-5%
CN(C)c1ccc(O)c2c1C[C@H]1C[C@H]3[C@@H](N(C)C)C(=O)C(C(N)=O)=C(O)[C@]3(O)C(=O)C1=C2O	2%[12.8 µM]
CCN(CC)c1ccc(C2C(C(=O)Nc3ccccn3)=C(C)NC3=C2C(=O)CC(C)(C)C3)cc1 (stereo unspecified)	65%
Cc1ccc(-n2c(SCC(=O)Nc3nccs3)nc3c(c2=O)SCC3)cc1	-8%
CCC/C=C(\CCC)C(NS(=O)(=O)c1cccc2cccnc12)c1ccc(C(=O)OC)cc1 (stereo unspecified)	14%
CNC(=O)N(c1ccccc1)c1ccccc1	-4%&-1%
O=C(NCc1ccco1)c1nc2ccccc2s1	-1%
CC1(C)CC(=O)C(C=NCCc2ccc(O)cc2)=C(O)C1	-8%
CCn1nnc(NC(=O)c2cccc(-c3cc4ccccc4oc3=O)c2)n1	2%
N#CC1=C(SCc2ccccc2)NC(=O)CC1c1cccc(O)c1 (stereo unspecified)	-14%
COC(=O)c1cc(OC)c(OC)cc1NC(=O)c1cc(C)on1	34%
COc1cc(NC(=O)Cn2nnc(-c3ccncc3)n2)cc(OC)c1	22%
C=C(C)c1cccc(C(C)(C)NC(=O)N2CC(C)OC(C)C2)c1 (stereo unspecified)	23%
N#Cc1cccc(-c2cn(S(=O)(=O)c3ccc(Cl)cc3)nc2N)c1	-16%
CC(=O)N1CCc2cc(Br)cc(S(=O)(=O)NCC3CCCO3)c21 (stereo unspecified)	2%
O=C(Nc1ccc(N2CCN(C(=O)c3ccco3)CC2)c(Cl)c1)c1c(F)c(F)c(F)c(F)c1F	20%
C=CCN1CC[C@]23c4c5ccc(O)c4O[C@@H]2C(=O)CC[C@@]3(O)[C@H]1C5	6%

2 entries from above, with each value named:
Compound: N#Cc1cccc(-c2cn(S(=O)(=O)c3ccc(Cl)cc3)nc2N)c1
  AmpC inh no det = -16%
Compound: O=C(Nc1ccc(N2CCN(C(=O)c3ccco3)CC2)c(Cl)c1)c1c(F)c(F)c(F)c(F)c1F
  AmpC inh no det = 20%

(listing goes on)
SMILES	AmpC inh no det
CCCOc1ccc(C(=O)Nc2ccc(N3CCN(C(C)=O)CC3)cc2)cc1	66%
COC(=O)Cn1c(C)c(C(C)=O)c(C(C)=O)c1C	8%
COc1c(C)cc(Br)cc1C(=O)Nc1ccc(N2CCN(S(C)(=O)=O)CC2)cc1	11%
CC(C(=O)NC1CCCC1)N(Cc1ccco1)C(=O)c1snc(C(=O)NC2CCCC2)c1N (stereo unspecified)	68%
CCc1cccc2c3c([nH]c12)[C@](CC)(CC(=O)O)OCC3	3%
O=C(Nc1nnc(-c2ccccc2)o1)Nc1ccccc1Cl	-15%
CCOc1cc(N2CCOCC2)c(OCC)cc1NC(=O)Cc1ccc(OC)c(OC)c1	110%
CCOC(=O)N1CCN(C(=O)CCc2c(C)nc3c(c(C)nn3-c3ccc(C)c(C)c3)c2C)CC1	155%
CC(=O)NC1CSCC1OC(C)=O (stereo unspecified)	-2%
COc1ccc(CNC(=O)CN(c2cc(C)cc(C)c2)S(=O)(=O)c2c(C)noc2C)cc1	41%
COc1ccc(C(=O)N2CCC3(CCN(C(=O)Nc4cccc(F)c4)CC3)CC2)cc1	79%
C[C@@H]1O[C@@H](OC[C@@H]2O[C@@H](Oc3c(-c4ccc(O)c(O)c4)oc4cc(O)cc(O)c4c3=O)[C@H](O)[C@H](O)[C@@H]2O)[C@H](O)[C@H](O)[C@@H]1O	1%
CC(C)(C)c1ccc(Cn2nnc3c(=O)[nH]c(C4CCCN(C(=O)Cc5cccs5)C4)nc32)cc1 (stereo unspecified)	97%
CC1(C)C2CC=C(CN3CCC(O)CC3)C1C2 (stereo unspecified)	1%
CCCCN=CC1=C(O)C(C(=O)OC)C(C)(C)CC1=O (stereo unspecified)	12%
CC1=C(C(=O)Nc2ccc(F)cc2)C(c2cccc(C)c2)n2nc(CCCO)nc2N1 (stereo unspecified)	66%
CC1(N2CCCCC2)CC2(O)C(=[N+]1[O-])CCC/C2=N\O (stereo unspecified)	-18%
Cc1noc(C)c1-c1cncnc1NCCN1CCOCC1	5%
COc1ccccc1CCn1c(=O)c(-c2ccccc2)nc2cncnc21	73%
Cc1onc(-c2ccccc2)c1C(=O)Nc1ccc(OC(C)C)cc1	32%
CC1CCCC(C)N1Cc1cn2ccccc2n1 (stereo unspecified)	-10%
Cc1ccc2cc(C#N)c(NCc3ccco3)nc2c1	2%
Cc1cc(NC(=O)C2CCCN(S(=O)(=O)c3c(C)noc3C)C2)no1 (stereo unspecified)	4µM*[single pt active]
N#Cc1c(-c2ccccc2)no[n+]1[O-]	3%
c1cc(CSc2ncnc3nc[nH]c23)ccn1	-3%[5.75 µM]
SMILES	AmpC inh no det
CCn1c(=O)cc(OCC(=O)Nc2ccccc2N2CCN(C)CC2)c2ccccc21	77%
Oc1cc(Cl)c(Cl)c(Cl)c1	-17%
COc1ccc(-c2nc3cncnc3n(-c3ccccc3)c2=O)cc1	3%
O=c1c2ccccc2[nH]c(=S)n1CCN1CCN(Cc2ccccc2)CC1	13%
COc1cc(C(=O)NCC(c2ccco2)N2CCCC2)ccc1OCc1c(C)noc1C (stereo unspecified)	39%
COc1ccc(C(=O)C(CN2CCOCC2)c2ccccc2)cc1F (stereo unspecified)	76%
CN(C)S(=O)(=O)c1cccc(C(=O)OCC(=O)Nc2ccccc2OC(F)F)c1	-8%
O=C(C1=C(O)C(=O)N(CC2CCCO2)C1c1cccnc1)c1ccco1 (stereo unspecified)	7%
CC(C)(C)Cc1nc(-c2ccccn2)no1	7%
O=C(Nc1ccccc1C(=O)NCc1ccccc1)c1ccco1	-7%
O=C(N1CCCCC1)C1(c2ccccc2)CCOCC1	60%
CC1CCCC(NC(=O)CSc2ncccc2C(=O)O)C1C (stereo unspecified)	3%
O=C(Cn1c(=O)[nH]c2ccsc2c1=O)N1CCN(c2ccc(F)cc2)CC1	18%
COc1ccc(N(CC(=O)Nc2cccc(C(=O)O)c2)S(=O)(=O)c2c(C)noc2C)cc1	-9%
Cc1nnc(SCC(=O)Nc2ccc(S(=O)(=O)N3CCCC3)cc2)n1N	0%
COC(=O)CN(c1cccc(C(C)=O)c1)S(C)(=O)=O	20%
O=C(Nc1cccc(-c2nc3cc(Cl)ccc3o2)c1)C1CCCO1 (stereo unspecified)	96%
CC(C(=O)NCc1ccc2c(c1)OCO2)N(c1ccccc1)S(C)(=O)=O (stereo unspecified)	-1%
NCCC[C@@H](CC(=O)N[C@@H]1CCCC[C@H]1C(=O)N[C@H](CC(=O)N[C@@H](CCC(=O)O)CC(=O)O)Cc1ccccc1)NC(=O)C[C@H](Cc1c[nH]c2ccccc12)NC(=O)[C@@H]1CCCC[C@H]1N	170%
O=C(CCS(=O)(=O)c1cccs1)NC1CCCCCC1	-7%
C[C@@H]1CC[C@@]2(OC1)O[C@H]1[C@@H](O)[C@H]3[C@@H]4CC[C@H]5C[C@@H](O[C@@H]6O[C@H](CO)[C@H](O[C@@H]7O[C@H](CO)[C@@H](O)[C@H](O[C@@H]8OC[C@@H](O)[C@H](O)[C@H]8O)[C@H]7O[C@@H]7O[C@H](CO)[C@@H](O)[C@H](O[C@@H]8O[C@H](CO)[C@@H](O)[C@H](O)[C@H]8O)[C@H]7O)[C@H](O)[C@H]6O)[C@H](O)C[C@]5(C)[C@H]4CC[C@]3(C)[C@H]1[C@@H]2C	143%
O=C(CCC(=O)c1cccs1)Nc1nnc(C2CC2)s1	-4%
CCSC(=O)N1CCCCCC1	-4%
Clc1ccc(-c2nnc(NC3=NCCCCC3)o2)cc1	6%
CC1(C)Cc2noc(N)c2C(C)(C)N1O	-7%
SMILES	AmpC inh no det
O=c1c2ccccc2c2ccccc2c(=O)n1-c1cc2c3ccccc3ccc2c2ccccc12	-25%[5.75 µM]
Cn1cc(C(=O)C(=O)N[C@H]2CN3CCC2CC3)c2ccccc21	13%
COc1ccc(-c2cc3nc4n(c(=O)c3s2)CCC4)cc1	54%
CC(C)CCn1c(=O)c2ccccc2n2c(COC(=O)c3ccc(S(=O)(=O)N(C)C)cc3)nnc12	61%
CCc1ccc(S(=O)(=O)NCc2cn3cccc(C)c3n2)s1	-9%
CCOC(=O)CC1(C)NC(=O)c2c(C)sc(C(=O)OCC)c2N1 (stereo unspecified)	18%
O=C(CSc1nnc(-c2ccco2)o1)NCC(=O)c1ccccc1	-2%
Cc1cc(N2CCOCC2)c2c(N)c(Br)cc(C)c2n1	75%
Cc1ccc2c(c1)N(CC(=O)NCCN1CCOCC1)C(=O)CO2	17%
Cc1ccc(-c2oc3ccccc3c(=O)c2O)cc1	-1%
CCOC(=O)c1c(NC(=O)CSc2ncn[nH]2)sc(C)c1C	24%
N#Cc1nc(-c2ccc(OCc3ccc(Cl)cc3)cc2)oc1NCCCn1ccnc1	-10%
O=C(Nc1ccccc1)N1CCCC2(CCNCC2)C1	2%
O/N=C1/CCc2cccc3cccc1c23	-4%
CCN(CC)c1cccc(OC2=NS(=O)(=O)c3ccccc32)c1	0%
Cc1cccc(-c2nc(CS(=O)CC(=O)N3CCCCC3)c(C)o2)c1 (stereo unspecified)	4µM*[single pt active]
CCOc1ccc2nc(NC(=O)c3cnccn3)sc2c1	-6%
COc1ccc(NC(=O)CCCN2C(=O)CCC2=O)cc1Cl	6%
Cc1sc(NC(=O)COc2cccc(-n3cnnn3)c2)c(C#N)c1C	11%
CCN(CC)CCOC(=O)c1cc(Cl)c(N)cc1OC	1%
C=CC(=C)C	1%
COc1ccc(CN2CCC(C(=O)N(C)CCc3ccc(OC)c(OC)c3)CC2)c(OC)c1	30%
C[N+]1(CCC[N+]2(C)C[C@H]3[C@H](C2)[C@H]2C=C[C@@H]3CC2)CCOCC1 (stereo partly specified)	4%[5.75 µM]
O=C(CSc1nnc(-c2ccc(F)cc2)o1)Nc1ccc(S(=O)(=O)N2CCCCCC2)cc1	-3%
